Source: PubChem
CtBP-E1A inh – CtBP/E1A binding inhibition | activity change, % (no concentration beside the values) | AlphaScreen GST-E1A/His-CtBP binding, 1536-well; active compounds read low; control for the full effect not named in the record | 340,000 compounds, 0.49% hits; in the data active means activity change below about -65%; inconclusive means about -30% to -65%; inactive means above about -30%; further: on the % scale 0 is the no-effect control and ±100 the full control effect
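In 5 uL wells, 23 nL compound meets equimolar GST-E1A and His-CtBP (5X stock 125 nM each) for 2 h, 37 °C. Beads (5X, 50 ug/mL) then 1 h, 37 °C, dark.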
TRPV1 potentiator – enhances activation of the human vanilloid receptor TRPV1; Q8NER1; TRPV1-expressing cells, Fluo-8 calcium influx, capsaicin EC20 potentiation; host cell line not named in the record; control for the full effect not named in the record; potentiation, % at 8.33 µM; 320,000 compounds, 0.02% hits; active means potentiation above 80%; inconclusive means 30% to 80%; inactive means below 30%; further: 0% is about no effect
Target sequence (Q8NER1 whole entry, looked up): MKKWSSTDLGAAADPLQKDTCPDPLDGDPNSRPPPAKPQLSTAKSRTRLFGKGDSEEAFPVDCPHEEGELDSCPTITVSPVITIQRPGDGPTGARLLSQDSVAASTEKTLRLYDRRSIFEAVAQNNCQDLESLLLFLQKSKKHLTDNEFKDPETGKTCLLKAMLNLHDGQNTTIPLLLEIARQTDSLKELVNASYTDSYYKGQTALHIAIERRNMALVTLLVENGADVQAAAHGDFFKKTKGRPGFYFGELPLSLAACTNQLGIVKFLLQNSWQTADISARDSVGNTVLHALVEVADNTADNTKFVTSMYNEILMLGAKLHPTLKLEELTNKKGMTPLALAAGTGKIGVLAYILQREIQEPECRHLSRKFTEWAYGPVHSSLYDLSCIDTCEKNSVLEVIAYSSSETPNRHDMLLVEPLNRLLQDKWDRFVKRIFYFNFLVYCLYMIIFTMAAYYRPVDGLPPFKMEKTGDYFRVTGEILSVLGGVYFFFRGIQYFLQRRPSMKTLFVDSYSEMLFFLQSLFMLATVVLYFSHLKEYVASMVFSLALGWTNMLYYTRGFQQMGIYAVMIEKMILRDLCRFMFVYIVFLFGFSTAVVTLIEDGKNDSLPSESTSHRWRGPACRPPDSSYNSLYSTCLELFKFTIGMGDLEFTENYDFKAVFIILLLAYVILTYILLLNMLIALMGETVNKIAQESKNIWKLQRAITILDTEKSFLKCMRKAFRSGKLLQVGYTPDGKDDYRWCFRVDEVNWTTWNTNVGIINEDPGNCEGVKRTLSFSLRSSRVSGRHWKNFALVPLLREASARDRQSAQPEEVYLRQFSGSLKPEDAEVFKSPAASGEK
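Fluo-8 calcium influx in TRPV1-expressing cells, kinetic read (ex 480/em 520 nm). Compound added and read 3 min for agonist activity, followed by capsaicin at EC20 final and 2 min further read for enhancement.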
Six1-Eya2 inh – blocks human Six1 binding to Eya2; Q15475+O00167; AlphaScreen GST-Six1/His-Eya2 binding, biochemical; active compounds read low; control for the full effect not named in the record; activity change, % (test concentration not listed); 360,000 compounds, 0.56% hits; AID 651725; in the data active = activity change below about -65%; inconclusive = about -30% to -65%; inactive = above about -30%; further: on the % scale 0 is the no-effect control and ±100 the full control effect
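Compounds are tested against tagged Six1 and Eya2 proteins bridged by glutathione donor and nickel acceptor beads; after a one-hour incubation at 37 °C without light, AlphaScreen emission is recorded.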
D2 ag – activates the human D2 dopamine receptor. 360,000 compounds, 0.084% hits. activation, % (no concentration beside the values). P14416. DiscoveRx PathHunter D2 beta-arrestin, luminescence, 90 min; 100% = 57 uM dopamine signal; in the data active = activation above about 40%; inconclusive = about 15% to 40%; inactive = below about 15%; further: compound concentration not given in the record; the text of the record calls up to 30% inactive
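DiscoveRx PathHunter D2 beta-arrestin cells (2,100/well) attached overnight, then compound-stimulated 90 min at 37 C in HBSS/10 mM HEPES/0.1% Tween-20 buffer; beta-galactosidase complementation read by luminescence after 1 h at ambient temperature. Dopamine 57 uM final (EC100) as control.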
Sfp PPTase inh – blocks B. subtilis Sfp PPTase activity; Q9F4F7; Biochemical Sfp PPTase activity, qHTS; 310,000 compounds, 3.5% hits; Potency, µM, inactives show max response, negative = inhibition, actives largely listed as inhibitors; active means well fitted inhibition curve with a large enough effect; inconclusive means small, poorly fitted or top-dose-only effect, or another doubt; inactive means no such curve, though single readings can be large or run the other way;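 further: the enzyme is Sfp with the accession as filed and its product quenches rhodamine fluorescence; potency means the concentration at half of the fitted maximal effect; 0% = enzyme reaction without inhibitor and -100% = no enzyme wells; top concentration of the series not given in the record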
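Reaction rates are the 30-min fluorescence difference (ex 525, em 598 nm) in wells containing 15 nM Sfp, 5 uM rhodamine-CoA and 12.5 uM BHQ-2-YbbR at pH 7.6 with 10 mM MgCl2.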
PINK1 expr mod – modulators of PINK1 expression; PINK1 immunofluorescence, high-content cytometry, 24 h; Potency, µM (highest dose often 76.6 µM), for inactives: at the top dose activation (PINK1 increase), actives largely listed as activators; 410,000 compounds, 0.2% hits; AID 624263; active = well fitted activation curve with a large enough effect; inconclusive = small, poorly fitted or top-dose-only effect; inactive = flat fitted curve, though single readings scatter; cell line not stated here;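 further: potency means the concentration at half of the fitted maximal effect; % of control where 0% means no effect; nearly all actives have a fitted effect of over 65% in size; a mitochondrial uncoupler was the plate control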
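Fluorescence from anti-PINK1 antibody, together with nuclear and cell stains, was scanned on a laser-scanning cytometer. Before staining, stable-line cells were incubated 24 hours with compounds at 5 concentrations; primary antibody 12 h at 10 degrees C.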
D2 potentiator – positive allosteric modulators of human D2 dopamine receptor; DiscoveRx D2 beta-arrestin cells, luminescence, 90 min; 100% = 57 uM dopamine signal; potentiation, % (test concentration not listed); 360,000 compounds, 0.23% hits; active = potentiation of 50% or more; inconclusive = 30% to 50%; inactive = 30% or less;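 further: compound concentration not given in the record; tested on top of an EC20 dose of dopamine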
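PathHunter beta-arrestin assay in DiscoveRx D2 cells. Compounds were added with an EC20 of dopamine (50 nM final) for 90 min at 37 deg C. Luminescence was read 1 h after detection reagent, with 57 uM dopamine as the EC100 control.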
Numbers without * were called inactive; ? = inconclusive; / = no result given; & = joins results of further samples; [ ] = remark or other dose.

Values run as follows: CtBP-E1A inh | TRPV1 potentiator | Six1-Eya2 inh | D2 ag | Sfp PPTase inh | PINK1 expr mod | D2 potentiator
Cc1cc(S(=O)(=O)N2CCCC2)ccc1OCC(=O)N1CCCCC1
  9 | -12 | 8 | -5.9 | 4% | -0.3% | 8
CCC(CO)NC(=O)c1cccc(S(=O)(=O)N2c3ccccc3CC2C)c1 (stereo not given)
  3 | -8 | 12 | -1.0 | 15% | 0.0% | -6
COc1ccc(C(CNC(=O)c2cccc(NS(=O)(=O)c3ccc(C)c(F)c3)c2)N(C)C)cc1 (stereo not given)
  -17 | 12 | 1 | -3.4 | / | 1.4% | 19
O=C(CNC(=S)N(Cc1ccccc1)Cc1ccccc1F)NCCc1ccc(Cl)cc1
  4 | -27 | 14 | 2.4 | 12% | 5.9% | -6
CCC(=O)N1c2ccc(S(=O)(=O)N3CCOCC3)cc2CC1C (stereo not given)
  -4 | 26 | 0 | -2.3 | 10% | -0.7% | -12
Nc1ccccc1SC1CC(=O)N(Cc2ccccc2)C1=O (stereo not given)
  3 | -11 | 9 | -2.6 | -10% | -1.2% | -4
CC(=O)N1C[C@H]2CON(C)[C@H]2C[C@H]1c1cccc(-c2cc(Cl)cc(Cl)c2)c1
  -6 | / | -6 | -6.1 | / | 4.8% | -4
COc1cc(NC(=O)NCC2CCN(Cc3ccc(C)cc3)CC2)cc(OC)c1OC
  0 | -5 | -7 | -4.9 | 5% | -1.7%&-0.3% | -16
[O-][n+]1nc2ccccc2c2ccccc21
  5 | / | -4 | 4.3 | / | 1.1% | -22
CCCn1nc(C(=O)OCC(=O)Nc2ccc(C)cc2)c2ccccc2c1=O
  -1 | / | -6 | -0.8 | / | 2.0% | 1
C/C(=N/NC(=O)c1ccc2c(c1)OCO2)c1cccc(NC(=O)C(C)(C)C)c1
  -1 | -5 | -1 | -4.5 | 14% | 0.3% | -17
Cc1ccc(-c2nn(-c3ccccc3)cc2C(=O)NCCCN2CCOCC2)cc1
  0 | 15 | 0 | 6.6 | 5% | -0.9% | -39
CCOC(=O)n1c(SCC(=O)N(CC)CC)nc2ccccc21
  -6 | -10 | -13 | -2.7 | 9% | -0.3% | -16
CC1(c2ccc(Cl)cc2)NC(=O)N(CC(=O)NCCC2=CCCCC2)C1=O (stereo not given)
  0 | 11 | 27 | 10.0 | / | 5.7% | -1
Fc1cc(Br)ccc1Nc1nc2ccccc2n2nnnc12
  1 | -6 | 1 | -3.8 | 10% | 6.6% | 10
COc1ccc(N(CC(=O)NCc2ccccc2Cl)S(=O)(=O)c2c(C)n[nH]c2C)cc1
  2 | 23 | 0 | -1.1 | 12% | 1.3% | -2
CC1CCN(C(=O)COC(=O)c2cc([N+](=O)[O-])ccc2N2CCOCC2)CC1
  -6 | -8 | 8 | -2.3 | / | 1.9% | 2
C=CCN1C(=O)/C(=C/N(C)C)S/C1=N\S(=O)(=O)c1cccs1
  0 | / | -1 | 1.2 | / | 0.9% | 4
CCOc1ccc(NC(=O)CN(C)C(=O)CSCc2c(C)noc2C)cc1OCC
  -7 | -9 | -1 | -3.1 | / | 1.4% | -1
COc1ccc(-c2noc(CCC(=O)Nc3cc(OC)ccc3OC)n2)cc1
  -9 | 19 | -15 | -3.8 | -3% | 3.8% | -4
CCOC(=O)C1=C(c2ccccc2)OC(N)=C(C#N)C1c1ccncc1 (stereo not given)
  -15 | -3 | 4 | -1.1 | ? | -1.3% | -4
COC(=O)c1ccc(C(NC(=O)OCc2ccccc2)/C(F)=C/[C@@H](C)C(=O)NCc2ccc(-c3ccccc3)cc2)cc1 (stereo not given in full)
  5 | 12 | -3 | -2.2 | 0%&18% | 2.3% | -12
O=C(Nc1ccc(N2CCN(C(=O)c3cccs3)CC2)cc1)c1cccnc1
  0 | ? | 0 | 2.8 | 1% | 5.1% | -1
CC(OC(=O)CCc1nc2ccccc2c(=O)[nH]1)C(=O)Nc1ncc(Cl)cc1Cl (stereo not given)
  -19 | -11 | 12 | -0.5 | 21% | -0.4% | -1
CCOc1ccccc1C(=O)OCC(=O)NCC1CCCCC1
  -15 | -12 | 5 | -1.7 | / | 1.2% | 0
COC(=O)c1cc(Br)ccc1OC(=O)c1cccnc1
  -3 | -18 | ? | -4.5 | 1% | 7.8% | -3
O=C(COC(=O)c1nc(Cl)ccc1Cl)NNC(=O)c1ccccc1
  5 | -1 | 6 | -1.3 | / | -2.2% | 8
CCOc1ccc(CCNC(=O)C2=C(C)C(=O)OC23CCC(C)CC3)cc1 (stereo not given)
  2 | -9 | 0 | -0.5 | 7% | 1.1% | -3
COc1ccc(C(CNc2ncnc3sccc23)N(C)C)cc1OC (stereo not given)
  0 | -1 | 12 | -2.4 | 10% | 2.0% | -8
COc1ccc(Oc2coc3cc(OC(=O)N4CCOCC4)ccc3c2=O)cc1
  7 | 12 | 1 | 1.4 | 7% | 17%[38.3 µM] | 6
COC(=O)c1ccc(/C=N/NC(=S)NC(C)C)cc1
  -5 | 2 | -7 | -0.1 | 13% | 0.0% | 1
COC(=O)N1C(=O)[C@](Cc2ccccc2)(c2ccccc2)N1C(=O)OC
  0 | -17 | -2 | -3.3 | -3% | 1.2% | -10
O=C(NCc1ccc(Cl)cc1)c1noc2c1CCCCC2
  -7 | -10 | 3 | -4.0 | 10% | -3.0%[38.3 µM] | -8
Cc1cccc(C2=NN(c3ccc(Br)cc3)[C@@H](C(=O)N3CCOC3=O)[C@@H]2C)c1
  30 | / | 36 | -3.0 | 10% | 0.2% | -8
COC(=O)c1ccccc1NC(=O)COC(=O)c1cccnc1
  2 | -8 | 8 | -2.2 | 17% | -0.4% | -5
C/C=C/C(=O)Nc1ccc(N2CCN(c3ccc(C(F)(F)F)cn3)CC2)nc1
  / | 3 | -5 | -5.7 | 27% | 0.5% | -1
CCOc1ccc(C(CC(=O)O)NC(=O)C(Sc2ccccc2)c2ccccc2)cc1 (stereo not given)
  0 | -31 | 6 | -6.1 | 11% | 1.5% | 0
C=CCN(CC=C)CC(O)Cn1c2ccccc2c2ccccc21 (stereo not given)
  10 | -6 | -3 | -0.8 | 5% | 1.5%[38.3 µM] | -18
CCOC(=O)C1CCCN(Cc2c(Cl)cccc2Cl)C1 (stereo not given)
  40 | -8 | 30 | -2.5 | -25% | 13%[38.3 µM] | -13
O=C(/C=C/[C@H]1O[C@@H](n2cnc3c(NC(=O)c4ccccc4)ncnc32)[C@H](O)[C@@H]1O)NCc1ccccc1
  5 | / | 0 | -2.4 | / | 2.2% | -5
N#Cc1nc(-c2cccs2)oc1NCc1ccco1
  -5 | -10 | -10 | -0.4 | -12% | 1.3%[38.3 µM] | 4
Nc1cc2c(cc1N)-c1ccccc1C2
  -12 | / | -19 | 8.0 | / | 0.1% | -3
COc1ccc(CNc2ccc3c(c2)ncn3-c2ccccc2OC)cc1
  1 | 7 | ? | 2.2 | -15% | / | -1
Cc1cccc2nc(CNC(=O)C3CCC(=O)N(Cc4ccccc4F)C3)cn12 (stereo not given)
  1 | 29 | -1 | -1.5 | 3% | 1.1% | 9
O=C(NN1CCOCC1)c1ccc(Cl)cc1[N+](=O)[O-]
  -5 | 19 | 2 | 4.6 | 5% | -1.4% | -21
CC1(C)CC(N2CCCCC2)=CC(=[N+]2CCCCC2)C1
  1 | -8 | 0 | -0.3 | 7% | ? | 0
CCC(C)NS(=O)(=O)c1ccc(OC)c(Cl)c1Cl (stereo not given)
  1 | -7 | -3 | -3.6 | 11% | -0.8% | -8
Cc1noc(C)c1/C=N/Nc1ccc2ccccc2n1
  -1 | -19 | 6 | -11 | 25% | 5.8% | -3
CCOC(=O)N1CCN(C2CC(=O)N(c3ccc(Oc4ccccc4)cc3)C2=O)CC1 (stereo not given)
  0 | -16 | 2 | 0.2 | -9% | ? | 9
CC1CN(C(=O)CSc2nnc(-c3ccc(Cl)cc3)n2C)CC(C)O1 (stereo not given)
  -11 | 11 | -1 | -2.4 | 14% | / | -3
COc1ccc(NC(=O)Cn2cc(C(=O)C3CC3)c3ccccc32)cc1
  4 | 1 | 4 | -1.1 | 14% | 3.0%&3.4% | 9
CS(=O)(=O)c1ccc(NS(=O)(=O)c2ccc(Cl)c(C(=O)NC3=NCCS3)c2)cc1
  0 | / | 2 | -0.4 | / | 2.8% | -9
CC(C)Cn1c(SCC(=O)NC2CC2)nc2ccccc21
  -24 | / | 11 | -3.9 | / | 0.6% | -17
Cc1coc2c1c(C)cc1oc(=O)c(CC(=O)NCCCN3CCCC3=O)c(C)c12
  -2 | 0 | -6 | 2.7 | 8% | 2.9% | 5
c1ccc(-c2nn3c(C4CCCCC4)nnc3s2)nc1
  -1 | 15 | 1 | -3.5 | -9% | -1.2% | -10
S=C(NCCN1CCOCC1)NC1CCCC1
  -6 | 4 | -1 | -5.2 | 10% | 0.3% | -6
CC12CCC(C3NC(=S)NN=C31)C2(C)C (stereo not given)
  4 | / | 8 | -3.5 | / | -0.5% | 1
CNC(=O)Nc1ccccc1C(=O)NCc1ccccc1
  13 | 3 | 5 | 0.5 | 0% | -1.4% | -25
CN1CCN(CC(=O)Nc2nnc(-c3cccs3)s2)CC1
  1 | 2 | 8 | -4.4 | -1% | 0.3% | -8
Cc1ccc(C(=O)C2CCN(CC(=O)Nc3nc(C)cs3)CC2)cc1
  19 | 2 | -11 | -3.0 | 2% | -0.5% | -38

One compound at a time, from the list above. Screens in order: CtBP-E1A inh, TRPV1 potentiator, Six1-Eya2 inh, D2 ag, Sfp PPTase inh, PINK1 expr mod, D2 potentiator
CCOc1ccc(C(CC(=O)O)NC(=O)C(Sc2ccccc2)c2ccccc2)cc1 (stereo not given) is listed with 0, -31, 6, -6.1, 11%, 1.5%, 0
COC(=O)c1ccc(/C=N/NC(=S)NC(C)C)cc1 is listed with -5, 2, -7, -0.1, 13%, 0.0%, 1
COc1ccc(CNc2ccc3c(c2)ncn3-c2ccccc2OC)cc1 is listed with 1, 7, ?, 2.2, -15%, /, -1
COC(=O)N1C(=O)[C@](Cc2ccccc2)(c2ccccc2)N1C(=O)OC is listed with 0, -17, -2, -3.3, -3%, 1.2%, -10
